Rce1 inhib: inhibitors of yeast Ras-converting enzyme; AID 2563; calls only; Q03530; 0.27% of 290,000 active; yeast membranes, quenched prenylated peptide cleavage fluorescence;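 active = fall in fluorescence gain of 50% or more versus controls, with final raw signal at or below 3038400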;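 also: plate controls were neutral control wells for no effect and wells lacking membranes for full effect; tested at 10 µM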
Target sequence (Q03530 whole entry, looked up): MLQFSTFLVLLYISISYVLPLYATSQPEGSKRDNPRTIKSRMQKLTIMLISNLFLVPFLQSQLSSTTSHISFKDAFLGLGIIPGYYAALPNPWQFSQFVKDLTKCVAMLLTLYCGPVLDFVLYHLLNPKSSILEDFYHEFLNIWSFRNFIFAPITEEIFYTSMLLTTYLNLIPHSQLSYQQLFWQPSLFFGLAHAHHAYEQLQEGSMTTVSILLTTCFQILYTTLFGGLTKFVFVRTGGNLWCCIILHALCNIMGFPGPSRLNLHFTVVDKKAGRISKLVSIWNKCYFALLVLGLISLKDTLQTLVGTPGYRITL
CSC inhib: cancer stem cell inhibition | cancer stem cell-like cells viability, luminescence | inhibition, % at 7.5 µM | 1.1% of 300,000 active | AID 2717;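 active = mean at 75% or more and at least half the replicates too; tested in HMLE shEcad cells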;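 also: 0% = median of negative and 100% = median of positive control wells; the first replicate is given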
MT1-MMP act inh: blocks activation of human MT1-MMP. 0.061% of 360,000 active. AID 651647. P50281. HT1080 RFP-PRO-GFP cells, GFP/RFP ratio fluorescence, overnight; percent of plate control window, DMSO zero. GFP/RFP ratio change, % at 20 µM;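 active = GFP/RFP ratio change of at least 30% with cell ATP level not reduced by more than half and red fluorescence within 50% of control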; also: strong numbers were not always called active
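Test system: HT1080 RFP-PRO-GFP cells; Benchmarks: DMSO and RFP-L50D-GFP cell wells; Timing: cells overnight before dosing, compound overnight, 37 °C, 5% CO2; Compound: one 20 µM compound dose with 1% DMSO; Read-out: GFP/RFP fluorescence ratio.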
Env fusion inh: inhibitors of HIV Env-mediated cell fusion. AID 651610. 1.1% of 360,000 active. inhibition, % at 12.3 µM. HeLa-JRFL Env/CEM21 cell fusion, luciferase;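 active = mean replicate inhibition score of at least 50 and every replicate individually at or above 50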;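 also: 0% = plate neutral controls and 100% = maraviroc near 300 nM; one replicate is shown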
eIF4H FP inh: inhibitors of RNA binding by human eIF4H; Q15056; AID 2012; eIF4H fluorescence polarization binding assay; 0.94% of 290,000 active; inhibition, % at 35 µM;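 active = 50% or more with normal probe brightness, or confirmed in later tests; about a fifth of its hits are not listed in these tables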;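 also: calls also rest on retests at 20 µM and on dose response follow-up; 0% = protein and probe with vehicle and 100% = probe without protein; strong numbers were not always called active; many hits fall short of the cut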
PABP FP inh: blocks human PABP binding to poly(A) RNA | 1% of 290,000 active | AID 2014 | fluorescence polarization | inhibition, % at 35 µM;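 active = 50% or more with normal probe brightness, or confirmed in later tests; about a fifth of its hits are not listed in these tables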;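 also: calls also rest on retests at 20 µM and on dose response follow-up; controls were probe without protein and protein plus probe with vehicle; some compounds called inactive have numbers as strong as hits; many hits fall short of the cut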
Target sequence (P11940 whole entry, looked up): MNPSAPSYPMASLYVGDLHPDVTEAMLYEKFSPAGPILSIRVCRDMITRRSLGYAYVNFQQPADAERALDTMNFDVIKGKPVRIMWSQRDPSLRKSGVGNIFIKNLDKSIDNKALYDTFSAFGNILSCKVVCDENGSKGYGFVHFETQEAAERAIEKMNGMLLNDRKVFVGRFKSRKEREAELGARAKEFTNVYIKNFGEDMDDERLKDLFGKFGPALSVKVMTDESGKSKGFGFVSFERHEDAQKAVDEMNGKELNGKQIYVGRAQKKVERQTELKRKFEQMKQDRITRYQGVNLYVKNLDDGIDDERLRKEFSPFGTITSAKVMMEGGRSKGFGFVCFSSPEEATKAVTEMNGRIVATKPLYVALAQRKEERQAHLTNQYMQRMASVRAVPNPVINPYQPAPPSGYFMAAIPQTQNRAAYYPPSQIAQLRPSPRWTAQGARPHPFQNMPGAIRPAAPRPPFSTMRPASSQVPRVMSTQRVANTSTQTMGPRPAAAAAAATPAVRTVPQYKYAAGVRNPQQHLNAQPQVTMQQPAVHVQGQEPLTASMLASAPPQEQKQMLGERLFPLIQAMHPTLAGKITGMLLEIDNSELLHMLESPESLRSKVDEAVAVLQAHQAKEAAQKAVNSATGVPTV
UUG fidelity: alters start codon recognition fidelity in yeast; S. cerevisiae UUG-firefly luciferase reporter, luminescence/redox ratio; activity score, % at 18.7 µM; 0.13% of 350,000 active;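 active = replicate mean at a twofold rise or more, about +100% in these data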;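 also: firefly luciferase made from a UUG start codon reports start codon fidelity; reporter light over untreated wells divided by growth signal over untreated wells; some hits fall short of that in this replicate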
eIF4H FP inh retest: further read-out of eIF4H FP inh, marked with its call; inhibition, %; compound at 20 µM; confirmation average;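 mean of two retest wells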
PABP FP inh retest: also measured in PABP FP inh; calls as there; inhibition, %; compound at 20 µM; confirmation repeats;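 mean of two retest wells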
MT1-MMP act inh RFP: second read-out of MT1-MMP act inh, no call of its own (marks repeat the call); RFP signal change, %; measured here: RFP expression control read;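 0 = vehicle wells; hits needed this value within 50% of zero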
* hit, by the source's call; i = inactive; · = no result given. Only part of the results is shown; count on the stated rates, not on these rows.

SMILES	Rce1 inhib	CSC inhib	MT1-MMP act inh	MT1-MMP act inh RFP	Env fusion inh	eIF4H FP inh	PABP FP inh	UUG fidelity	others
CCOC(=O)C(NC(=O)c1cccc(Cl)c1)(OCc1ccccc1)C(F)(F)F (stereo not drawn)	i	-0.4	-16.7	-12.4	3.6	1.9	12.1	3.1
COc1ccc(OC)c(NC(=O)C2(C)CCN2C(=O)C2(c3ccc(Cl)cc3)CCC2)c1 (stereo not drawn)	·	·	4.8	-2.8	6.7	·	·	-17.4
NC(=O)c1ccc(NC(=O)CN2CCN(c3ccccc3)CC2)cc1	i	-10.6	0.4	-1.5	-13.0	-6.5	10.4	-10.8
COC(=O)C1=C(N)Oc2cc(C)n(CCc3ccccc3)c(=O)c2C1c1cccnc1 (stereo not drawn)	i	-19.0	3.8	-2.5	·	1.1	5.8	-5.0
COc1ccc2nc(C)cc(N3CCC(C(N)=O)CC3)c2c1	i	-13.2	-11.9	-8.2	-3.5	-11.6	22.3	-12.0
CN1C(=O)CC(P(=O)(c2ccccc2)c2ccccc2)N(C)C1=O (stereo not drawn)	i	-5.2	0.5	5.0	·	2.7	-1.5	·
C/C(CC(=O)Nc1cccc(Cl)c1Cl)=N\NC(=O)c1ccccc1Br	i	·	-1.4	-0.4	7.3	-0.2	3.0	-12.1
CCOC(=O)C1=C(CS(=O)(=O)c2ccc(C)cc2)NC(=O)NC1c1cc(OC)c(OC)c(OC)c1 (stereo not drawn)	i	-6.0	1.0	0.7	11.9	2.5	1.8	3.8
Cc1ccc(S(=O)(=O)N2CCOC23CCN(C(=O)c2ccc(Cl)cc2Cl)CC3)cc1	i	-4.0	-46.6	-37.6	8.2	-1.3	5.3	-8.9
O=C(COC(=O)c1cc(=O)[nH]c2ccccc12)NC1CCCC1	i	-7.4	1.3	0.7	-1.5	-4.9	-7.2	·
O=C(COC(=O)C1(c2ccccc2F)CCCC1)N1CCOCC1	i	-14.0	-0.6	-1.7	·	3.0	-6.6	-4.3
CCCCN(C)Cc1c(O)ccc2c(-c3ccccc3)cc(=O)oc12	i	7.5	-6.5	-3.0	-26.3	-3.1	-6.9	-7.5
O=[N+]([O-])c1ccc2nonc2c1Nc1cccc(F)c1	i	5.2	1.0	1.1	-1.9	10.5	7.1	-9.2
COc1ccnc(N=CNOCc2ccc(C)cc2)c1C#N	i	13.9	1.7	0.5	·	-4.3	-0.6	4.0
CCCCOC(=O)c1ccc(NC(=O)COC(=O)CSc2nc(C)cc(C)n2)cc1	i	3.3	1.9	3.2	53.0	3.8	6.0	1.8
CCOC(=O)c1sc(NC(=O)c2c(C)nn(Cc3ccccc3)c2C)cc1C	·	·	-8.3	-15.7	-15.8	2.3	0.0	-13.8
COc1ccc(CNCC(=O)Nc2cc(OC)cc(OC)c2)cc1	i	-8.5	2.1	-1.3	8.8	15.1	3.0	-11.0
Cc1nn(CCc2nn[nH]n2)c2nc(C(F)(F)F)cc(C(F)(F)F)c12	i	9.6	4.5	3.0	·	-4.3	11.3	-17.0
CCc1ccc(CN(C)CC(=O)Nc2ccc3c(c2)CCC3)cc1	i	8.8	-4.7	-1.3	4.9	-1.7	1.7	·
O=C(C1CCN(S(=O)(=O)c2cccc3nsnc23)CC1)N1CCc2ccccc21	i	-8.9	3.6	-11.8	·	-6.3	1.1	-13.4
COc1ccc(CC(=O)N/N=C/c2cc(Br)cs2)cc1OC	i	-10.0	3.0	-2.1	2.9	4.1	2.6	-17.4
Cc1nn(-c2ccccc2)c(Cl)c1C(=O)N(C)CC(=O)Nc1cccc(F)c1	i	-7.0	-0.8	-5.6	22.9	·	·	·
COCCNc1ccnc2c(Cl)cccc12	·	-7.6	0.7	0.7	7.9	-5.8	1.9	-10.2
O=[N+]([O-])c1ccc(-c2nc(NCC3CCCO3)c3ccccc3n2)cc1 (stereo not drawn)	i	0.9	0.7	-6.6	4.5	0.8	6.7	·
COc1cccc(CNC(=O)CN(C)S(=O)(=O)c2ccc(Br)s2)c1	·	-18.7	-0.3	1.5	15.0	-1.4	10.0	5.6
COc1ccc(N2CCN(C(=O)CNC(=O)c3ccc(Br)o3)CC2)cc1	i	-13.0	1.5	0.0	-0.7	-4.0	-9.0	-5.6
Cc1ccc(C(=O)OCC(=O)NC2CC2)s1	·	-17.8	-0.6	4.5	15.4	·	·	-0.6
Cc1nc(SCC(=O)NC(C)(C#N)C2CC2)c2c(-c3cccs3)csc2n1 (stereo not drawn)	i	-5.1	11.5	-5.6	-1.8	-14.4	4.9	·
Cc1nc2cc(NC(=O)N3CCC(c4ccccc4)C3)ccc2n1C (stereo not drawn)	·	-2.3	2.3	1.7	·	-11.8	1.3	-16.3
N#Cc1ccc(-c2ccc(F)cc2)nc1Sc1ccccc1	i	-7.4	3.1	-1.6	-36.3	-9.8	-7.0	-15.9
CCCc1cc(C(=O)N2CCCC(Nc3ccc(C)c(C)c3)C2)n(C)n1 (stereo not drawn)	i	-7.2	0.3	-0.2	-6.0	-4.3	-1.1	9.9
C/C(=N\OCC(=O)Nc1c(C)cc(C)cc1C)c1ccc2c(c1)OCCO2	i	-12.2	-7.1	-6.5	29.9	-23.2	-4.6	-8.2
CCN(CC(=O)Nc1c(F)cccc1F)C(=O)CNC(=O)c1ccc(Br)o1	i	3.1	-4.3	-1.3	-3.5	·	·	-10.8
CN(c1ccccc1C(=O)N1CCN(c2ccccc2F)CC1)S(=O)(=O)c1ccccc1	i	-14.9	2.6	2.9	-27.8	-22.0	-0.8	3.7
COc1ccc(CCC(=O)NCc2ccco2)cc1	i	1.2	-6.5	-1.5	1.4	27.4	-5.0	-21.9
COc1ccc2c(c1)-c1nc(/N=C/c3c(O)ccc4ccccc34)sc1CC2	i	·	2.3	2.6	0.1	-1.2	12.0	·
NS(=O)(=O)c1ccc(CCNC(=O)c2ccccc2Cc2ccccc2)cc1	i	-2.6	-1.2	-0.5	5.6	4.8	-5.9	5.5
Cn1cnnc1SCC(=O)Nc1ncc([N+](=O)[O-])s1	·	-14.4	-9.5	-3.0	-15.2	·	·	-10.1
O=C(CSc1nc2ccccc2[nH]1)N/N=C/c1ccncc1	i	-9.7	-0.3	1.3	-0.2	-1.6	-0.9	-17.9
COc1c(Cl)ccc(Cl)c1C(=O)NC(=O)Nc1nc(C)cc(C)n1	i	6.9	0.4	3.5	6.8	-5.9	10.2	-0.9
O=C(NNC(=O)C1CCCC1)c1cc([N+](=O)[O-])cc([N+](=O)[O-])c1	·	-8.4	0.3	3.3	·	·	·	-40.4
Nc1nc(-c2ccc(F)cc2)cs1	i	3.9	-0.7	-1.7	-7.6	-7.1	4.3	-25.4
O=C(NCc1cccnc1)C(=O)NCC(c1ccco1)N1CCN(c2ccccc2)CC1 (stereo not drawn)	i	-18.4	2.0	-0.8	·	-11.9	17.5	-7.5
O=C(COC(=O)CCC(=O)c1ccc(F)cc1)NCc1ccccc1Cl	·	-2.6	1.7	4.9	-5.1	·	·	-1.9
O=C(CN1C(=O)S/C(=C\c2ccc(F)cc2)C1=O)NCCCn1ccnc1	i	57.3	2.8	2.3	1.9	-0.1	-4.1	8.2
CC1Oc2ccccc2N(CC(=O)NCc2ccc3c(c2)OCO3)C1=O (stereo not drawn)	i	-2.9	2.6	6.6	-19.2	-11.0	-5.8	·
COc1ccccc1N1CCN(CC(=O)Nc2c(C)n[nH]c2C)CC1	i	-6.7	1.2	-0.3	-46.3	·	·	-3.6
Cc1nc2ccccc2c(=O)n1/N=C/c1ccccc1O	i	-4.9	3.6	0.7	-0.8	3.1	5.2	3.2

Structural class, the entries above with a furan ring, fused or not (4)
SMILES	Rce1 inhib	CSC inhib	MT1-MMP act inh	MT1-MMP act inh RFP	Env fusion inh	eIF4H FP inh	PABP FP inh	UUG fidelity	others
COc1ccc(N2CCN(C(=O)CNC(=O)c3ccc(Br)o3)CC2)cc1	i	-13.0	1.5	0.0	-0.7	-4.0	-9.0	-5.6
CCN(CC(=O)Nc1c(F)cccc1F)C(=O)CNC(=O)c1ccc(Br)o1	i	3.1	-4.3	-1.3	-3.5	·	·	-10.8
COc1ccc(CCC(=O)NCc2ccco2)cc1	i	1.2	-6.5	-1.5	1.4	27.4	-5.0	-21.9
O=C(NCc1cccnc1)C(=O)NCC(c1ccco1)N1CCN(c2ccccc2)CC1 (stereo not drawn)	i	-18.4	2.0	-0.8	·	-11.9	17.5	-7.5

(cont.)
SMILES	Rce1 inhib	CSC inhib	MT1-MMP act inh	MT1-MMP act inh RFP	Env fusion inh	eIF4H FP inh	PABP FP inh	UUG fidelity	others
Cn1c(CN2CCN(c3ccc(Cl)cc3)CC2)nc2ccccc21	·	-3.3	2.1	-1.5	29.4	0.9	9.9	·
CCOC(=O)C(C)n1cnc2c(nnn2-c2cccc(OC)c2)c1=O (stereo not drawn)	i	-1.7	-2.1	0.1	-13.9	9.4	6.4	-7.4
O=C(NCc1ccccc1)c1c(O)c2cccc3c2n(c1=O)CCC3	i	41.1	0.5	5.7	·	1.7	-4.7	-9.1
CCCn1c(=N)c(S(=O)(=O)c2ccc(F)cc2)cc2c(=O)n3ccccc3nc21	i	-15.0	2.9	0.1	-2.2	0.3	-3.0	-27.9
COc1ccc(N2CCN(C(=O)CCc3nnc4ccc(N5CCC(C)CC5)nn34)CC2)cc1	i	-8.1	-1.2	3.4	0.8	-2.9	1.9	-14.0
CCOn1c(=O)c(-c2ccc(F)cc2)[n+]([O-])c2ccccc21	i	-6.4	-1.4	0.8	-16.6	-4.4	-5.1	-12.1
O=C(O)c1cccc(-c2ccc(/C=N/Nc3nn[nH]n3)o2)c1	i	-2.6	-0.8	4.0	-11.9	51.1	-0.7	·	eIF4H FP inh retest=20.1;PABP FP inh retest=46.8
O=C(N=C1SC2CS(=O)(=O)CC2N1c1ccccc1)c1ccccc1 (stereo not drawn)	·	-9.3	1.7	-2.1	1.7	·	·	1.8
COc1cc(C(=O)NCCNC(=O)C2CCCNC2=O)cc(OC)c1OC (stereo not drawn)	i	-17.0	1.6	-0.3	-2.2	-4.2	-6.0	·
CC1CC(C)CN(S(=O)(=O)CC23CCC(CC2=O)C3(C)C)C1 (stereo not drawn)	i	·	2.0	5.9	6.6	5.8	7.2	-8.2
Cc1cc(C(=O)NNC(=O)c2ccccc2O)c(C)o1	·	4.0	4.4	6.6	·	·	·	-8.8
Cn1c(CCN2CCCCC2)nc2cc(NC(=O)Nc3ccccc3)ccc21	i	-3.6	-2.1	-0.5	36.4	-5.7	-1.3	0.0
N#Cc1ccc(Oc2ccc(NC(=O)C3CC=CCC3C(=O)O)cc2)cc1 (stereo not drawn)	i	-7.2	·	·	15.6	-3.6	11.9	·
Cc1ccc(S(=O)(=O)N(CC(=O)NC2CC2)c2ccc(C)c(Cl)c2)cc1	i	-6.8	2.4	4.5	-20.8	4.8	8.1	1.3
Cc1ccc(O)c(NC(=O)/C=C/C(=O)O)c1	i	5.6	-0.3	0.5	7.8	10.3	15.7	·
O=C(CC(=O)N/N=C\c1ccccc1)NCCc1ccccc1	i	-9.7	1.5	1.8	-194.6	5.0	0.8	-10.1
Cc1cccc(-c2nnc3n2N=C(c2ccc(Br)cc2)CS3)c1	i	15.3	·	·	·	-7.2	0.1	·
CCOC(=O)/C(=N/Nc1ccc(Cl)cc1)S(=O)(=O)c1ccc(Cl)cc1	i	16.6	2.4	5.1	·	-1.3	-11.4	-19.3
O=C1C=CC(=Nc2ccc3c(c2)Cc2ccccc2-3)O1	·	·	0.4	0.1	-19.7	·	·	-7.3
CCOc1nc(C)ccc1-c1noc(-c2ccccc2OC)n1	i	-19.5	-3.9	-0.7	-141.0	0.4	-2.1	-8.3
CN(C(=O)Nc1cccc(C(F)(F)F)c1)C1CCCCC1	i	11.0	-1.0	-2.0	14.2	3.0	0.3	-10.5

Compound activity (PubChem BioAssay)
